Rango release inh – inhibition of RanGTP-driven Rango-importin beta dissociation; Biochemical FRET Rango-importin beta, RanGTP-induced dissociation; Potency, µM (top dose mostly 46.1 µM), without a hit: top-dose activity change, negative = inhibition; actives 0.071% (n = 340,000); AID 540253; active means falling FRET ratio curve, often poorly fitted, with flat reads before Ran was added; inconclusive means other falling curves, or compound fluorescence or quenching; inactive means flat or rising ratio curve;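 note: potency is the fitted concentration of half-maximal effect; % of control where 0% means no effect; nearly all actives have a fitted effect of over 45% in size; -100% = wells without RanGTP and RCC1; the record marks most hits as doubtful in a second field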
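Rango (0.1 uM)–importin beta (0.25 uM) complex; RanGTP-RCC1 trigger; 45 min RT; CFP/YFP FRET read.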
miR-21 FLuc – raises the signal of a miR-21 reporter. 340,000 tested, under 10 active. Potency, µM (titrated, usually from 38.3 µM), for the others: top-dose reporter change, positive = more light. HeLa miR-21 FLuc reporter, luciferase, 48 h; active = well fitted rising curve with a large enough effect; inconclusive = small, poorly fitted or top-dose-only effect; inactive = no such curve, though single readings can be large or run the other way;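 note: % of control where 0% means no effect; miR-21 action dims this reporter so a rising signal means less miR-21 action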
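HeLa cells stably expressing CMV-driven firefly luciferase with a downstream miR-21 binding sequence, endogenously expressing miR-21, were treated with titrations (up to about 40uM final) for 48 hours at 37 degree Celsius. Luciferase luminescence was read after lysis.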
Rango complex inh – inhibitors of Rango-importin beta complex formation | Rango CFP/YFP FRET sensor + importin beta, 45 min | Potency, µM (series often up to 92.2 µM), inactives show top-dose inhibition of complex formation | actives 0.031% (n = 340,000) | AID 540263; active = rising FRET ratio curve, often small or poorly fitted; inconclusive = mostly compound fluorescence or quenching in the first reads; inactive = flat curves in all reads;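 note: potency is the fitted concentration of half-maximal effect; 0% = DMSO wells and 100% = buffer wells lacking importin beta; nearly all actives have a fitted effect of over 15% in size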
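Inhibition scored from the CFP 486 nm/YFP 530 nm FRET ratio 45 min after adding 0.125 microM importin beta to 50 nM Rango biosensor preincubated 5 min with compound (room temperature, PBS with DTT, Tween-20, BSA). No-importin wells as positive control.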
GLA inh pH 4.5 – blocks human alpha-galactosidase A at pH 4.5. P06280. purified enzyme, 4-MU-alpha-Gal fluorescence, pH 4.5. activity change, negative = inhibition, % at 105 µM. 230,000 tested, under 10 active. AID 1467; inconclusive = small, poorly fitted or top-dose-only inhibition, or a rising curve; inactive = flat fitted curve, though single readings scatter; no compound was filed as active;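 note: 0% = full activity with enzyme and -100% = basal without enzyme; dose as in the result columns while the protocol names 77 µM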
Target sequence (P06280 whole entry, looked up): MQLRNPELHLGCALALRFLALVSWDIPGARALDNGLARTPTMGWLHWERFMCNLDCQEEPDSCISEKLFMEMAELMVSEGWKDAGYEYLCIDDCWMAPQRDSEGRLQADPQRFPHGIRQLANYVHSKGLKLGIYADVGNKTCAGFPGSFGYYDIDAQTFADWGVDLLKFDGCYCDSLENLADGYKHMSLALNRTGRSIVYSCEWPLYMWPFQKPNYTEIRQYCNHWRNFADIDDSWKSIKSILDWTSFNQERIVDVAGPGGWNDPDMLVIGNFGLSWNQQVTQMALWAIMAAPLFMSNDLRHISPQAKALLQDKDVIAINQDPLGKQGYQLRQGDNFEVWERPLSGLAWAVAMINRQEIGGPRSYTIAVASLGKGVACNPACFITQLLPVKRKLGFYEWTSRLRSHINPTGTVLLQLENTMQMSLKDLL
* hit, by the source's call; ? = inconclusive; · = no result given; & = joins results of further samples; [ ] = remark or other dose. This is a subset; rates above refer to the full screens.

Rango release inh	miR-21 FLuc	Rango complex inh	Structure	GLA inh pH 4.5
0%	0%	-1.7%	COCCNC(=O)C(=O)N/N=C/c1ccc(C(=O)OC)cc1	3
-1%	4%	0.5%	O=C(CSc1nc2ccccc2c(=O)n1-c1ccc(SC(F)F)cc1)Nc1ccc(N2CCOCC2)cc1	-18
-10%	-1%	-0.3%	O=C(CSc1ncccc1C(=O)O)NC12CC3CC(CC(C3)C1)C2	-23
-7%	-5%	0.1%	COc1ccc(C2OC(=O)c3ccccc3S2)cc1 (stereo not given)	-1
2%	-18%	-0.6%	COc1ccc(C2N(c3cc(Cl)ccc3OC)C(=O)C3CCCN32)cc1OC (stereo not given)	4
1%	-1%	3.0%	O=C(NNC(=O)C1CCCN(c2ncccn2)C1)c1ccc(F)cc1 (stereo not given)	-5
1%	-1%	4.2%	CC(=O)c1c(C)[nH]c(C(=O)NCCCN2CCCC2)c1C	0
-28%	-5%	8.4%	Cc1ccc(N2CC(C(=O)Nc3nnc(SCC(=O)NCC4CCCO4)s3)CC2=O)cc1 (stereo not given)	·
2%	-3%	4.4%	CC(=O)OC1CSc2nc3ccccc3n2C1 (stereo not given)	-28
23%	-4%	6.5%	CC(=O)c1cccc(NC(=O)Nc2ccc(C(=O)N3CCCC3)cc2)c1	4
-1%	-5%	?	O=C(CCN1C(=O)/C(=C/c2cccs2)SC1=S)Nc1ccccn1	0
?	-8%	?	O=C(CC1Nc2ccccc2NC1=O)Nc1cc(Cl)cc(Cl)c1 (stereo not given)	-13
-6%	-1%	-0.1%	Cc1ccc(-c2ocnc2C(=O)N2CCOCC2)cc1	·
-16%	-7%	-4.2%	Cc1ccc(NC(=O)CNC(=O)c2ccco2)nc1	·
1%	·	-4.1%	COc1ccc(NC(=O)CSc2nnc3ccc(-c4ccccn4)nn23)cc1OC	·

Next part.
Rango release inh	miR-21 FLuc	Rango complex inh	Structure	GLA inh pH 4.5
3%	-13%	-0.9%	Cn1ccnc1C(O)c1cccc(OCc2ccccc2)c1 (stereo not given)	·
2%	-4%	0.6%	O=C(CCC(=O)OCC(F)(F)C(F)F)Nc1ccc(Cl)cc1	6
33%	·	-4.8%	N#Cc1cccc(NC(=O)CSc2cccc[n+]2[O-])c1	·
7%	0%	-3.7%	Cc1cccc(C2(c3cccc(C)c3)CC2C(=O)NCC2CCCO2)c1 (stereo not given)	-11
-3%	-65%	-3.8%	CC(=O)c1c(C)nc(-c2ccc(Cl)cc2)nc1N	-2
0%	-3%	-0.1%	Cc1ccc(N2C(=O)c3ccccc3C2(O)c2ncc[nH]2)cc1 (stereo not given)	4
-7%	·	-0.7%	CCOc1ccc(CCNC(=O)c2cccc(S(=O)(=O)N3CCOCC3)c2)cc1OCC	·
-11%	-4%	-1.0%	O=C(CSC1=NCCS1)NC1CCCC1	-4
-4%	-14%	0.7%	COc1cccc(NC(=S)N(Cc2ccc(C(=O)O)cc2)Cc2ccc(OC)c(OC)c2)c1	11
-7%	·	-0.6%	COc1ccc(C(=O)N2CCCC(C(N)=O)C2)cc1S(=O)(=O)N1CCOCC1 (stereo not given)	·
?	-1%	?	COc1cc2[nH]c(=S)nc(NCc3ccccn3)c2cc1OC	3[21.1 µM]
0%	·	-1.5%	COc1ccc(C(=O)COC(=O)/C=C/c2ccccc2[N+](=O)[O-])cc1	·
-9%	-43%	-3.7%	COc1ccc(CNc2nc3ccccc3n2C)c(OC)c1	8
2%	-7%	0.4%	CS(=O)(=O)Nc1ccc(C(=O)NCc2ccccn2)cc1	3
-10%	-1%	-0.1%	O=[N+]([O-])c1cc([N+](=O)[O-])c2n[nH]c(-c3ccccc3)c2c1	-1

(more compounds)
Rango release inh	miR-21 FLuc	Rango complex inh	Structure	GLA inh pH 4.5
·	-17%	·	COc1ccc(NC(=S)Nc2cc(S(=O)(=O)N3CCCCC3)ccc2OC)cc1	-3
-9%	-4%	3.7%	O=C(COC(=O)C1Cc2ccccc2CN1C(=O)c1ccccc1Cl)Nc1ccc(N2CCOCC2)cc1 (stereo not given)	2
-8%	-6%	-3.2%	C=CCN(C)NC(=O)Nc1ccccc1	5
-22%	-7%	0.6%	Cc1cccc(-c2nnc(SCC(=O)Nc3cccc(C(=O)N4CCOCC4)c3)n2C)c1	-9
-10%	-35%	0.3%	C/C(CC(=O)Nc1ccccc1-c1ccccc1)=N\NC(=O)COc1ccc(C)cc1Br	-3
15%	-3%	1.1%	COc1cc(NC(=O)c2ccc(NC3=NC4CS(=O)(=O)CC4S3)cc2)cc(OC)c1 (stereo not given)	·
18%	-7%	1.2%	O=C(CCn1ccc([N+](=O)[O-])n1)NC1CCCCCC1	5
0%	-10%	5.2%	CCCSc1nnc(CSc2nc3nc(C)cc(C)n3n2)o1	-1
-14%	-1%	-0.9%	O=C(COC(=O)CCC(=O)c1ccc(F)cc1)Nc1ccccc1	2
-2%	-4%	0.7%	Cc1cc(C)nc(N/C(=N\S(=O)(=O)Cc2ccccc2)Nc2cccc(Cl)c2C)n1	-2
?	15%	?	O=C(N/N=C/c1ccc(N2CCOCC2)cc1)c1ccccc1OCCOc1ccccc1	-10
-9%	-1%	-0.1%	CCOC(=O)CCSc1n[nH]c(=S)s1	-3
10%	0%	-0.2%	CCn1c(SCC(=O)NC2CCCC2)nnc1-c1ccco1	·
0%	-3%	2.9%	CC1CCCCC1NC(=O)Cn1[nH]c(=O)c2ccccc2c1=O (stereo not given)	3
0%	-12%	5.1%	Cc1ccc2nc(NC(=O)CN3C(=O)C4CC=CCC4C3=O)sc2c1 (stereo not given)	5

(list continues)
Rango release inh	miR-21 FLuc	Rango complex inh	Structure	GLA inh pH 4.5
-20%	2%	1.0%	COCCOC(=O)C1=C(C)NC(=O)NC1c1cccs1 (stereo not given)	-7
-1%	·	0.3%	C=CCn1cnnc1SCC(=O)N(C1CCCCC1)C1CCS(=O)(=O)C1 (stereo not given)	·
·	3%	·	CC1CC(OC(=O)CN2CCCCC2)CC(C)(C)C1 (stereo not given)	-2
1%	-40%	-1.3%	Cc1cccc(NC(=O)c2ccc(OCC3CCCO3)cc2)c1C (stereo not given)	0
0%	-3%	-0.1%	CN(Cc1ccccc1NS(=O)(=O)c1ccc(Cl)cc1)C1CCCCC1	10
-5%	-3%	5.7%	C/C(N)=C(/C#N)C(=O)COC(=O)c1ccc(NC(N)=O)cc1	8
-10%	0%	1.0%	O=C(NC1CCCCC1)C(c1ccc(Cl)cc1)N1CCC2(CC1)OCCO2 (stereo not given)	2
·	-56%	·	COc1cccc2sc(Nc3nc(-c4ccccn4)cs3)nc12	-11
4%	-8%	5.2%	O=S(=O)(Nc1ccc(OC(F)F)cc1)c1ccc(-c2ccon2)s1	·
10%	0%&-1%	-2.3%	COC(=O)c1ccc(Cn2nnc3c(=O)[nH]c(C4CCCN(S(=O)(=O)c5ccccc5)C4)nc32)cc1 (stereo not given)	·
10%	·	-3.3%	COc1ccc(S(=O)(=O)NC2CC(=O)N(c3ccc(C)c(C)c3)C2)cc1 (stereo not given)	·
22%	·	0.4%	O=C(O)c1ccccc1C1c2ccccc2Oc2ccccc21	·
17%	0%	0.6%	CC(=O)/C(=N\Nc1ccc(Cl)cc1)Sc1nnc(-c2ccccc2)n1-c1ccccc1	3
0%	-5%	-0.5%	NS(=O)(=O)c1ccc(N/N=C/c2ccccn2)c([N+](=O)[O-])c1	-1
1%	·	0.0%	CCOc1ccc(NC(=O)CN(C)C(=O)c2ccccc2OCc2cccc(C)c2)cc1OCC	·

(continued)
Rango release inh	miR-21 FLuc	Rango complex inh	Structure	GLA inh pH 4.5
-21%	-1%	-2.4%	CCOC(=O)C1=C(CC)OC(N)=C(C#N)C1c1cc(OC)ccc1OC (stereo not given)	-6
0%	-62%	-9.9%	CCC(=O)Nc1ccc(N2CCC(C)CC2)cc1	12
5%	13%	-0.6%	COc1cccc(/C=N/NC(=O)c2ccc(OCc3cccc(Br)c3)cc2)c1	4
2%	-1%	-0.3%	O=C(CCCC(=O)N(CC(=O)NC1CCCCC1)Cc1ccco1)Nc1ccccn1	-2
12%	20%	3.1%	Cc1ccc2nc(/N=C(\N)NC(=O)NC3CCCCC3)nc(C)c2c1	-4
0%	-17%	1.1%	O=C(CSc1nnnn1Cc1ccccc1)Nc1ccc2c(c1)OCCO2	0
-9%	-4%	1.9%	CC(C)c1ccc(N2CC(C)(C)C2=O)cc1	-15
-4%	·	1.6%	O=C(Nc1ccncc1)C1CCN(S(=O)(=O)c2ccccc2)CC1	·
-8%	·	6.7%	O=C(NCc1ccc(F)cc1)C1CCCN1S(=O)(=O)c1ccccc1C(F)(F)F (stereo not given)	·
-4%	-35%	0.3%	COc1ccccc1-c1cc(C(=O)N2CCCc3ccccc32)no1	0
-12%	-2%	?	Cc1ccc(Cn2c(=S)[nH]c3ccc(N4CCOCC4)cc3c2=O)o1	-1
0%	2%	4.4%	Cc1nc(C(=O)Nc2ccc(Cl)cc2Cl)nn1-c1cc(OC(C)C)c(Cl)cc1Cl	-6
44%	-2%	-4.4%	CCOC(=O)C1(Cc2ccccc2)CCN(CC2CC=CCC2)CC1 (stereo not given)	-5
8%	-4%	0.2%	O=C1c2cc(Cl)ccc2OC2(CCNCC2)C12CC(c1ccccc1)=NO2 (stereo not given)	6
0%	-3%	-3.2%	NC(=O)C1(N2CCCCC2)CCN(c2nc(-c3ccccc3)cs2)CC1	-1

New compounds follow.
Rango release inh	miR-21 FLuc	Rango complex inh	Structure	GLA inh pH 4.5
0%	8%	2.2%	COc1ccc(OCc2nnc(SCC(=O)N3c4ccccc4Sc4ccc(Cl)cc43)o2)cc1	-7
2%	-5%	-2.5%	CCC1CCCCN1CC(=O)c1c(C)[nH]c2ccccc12 (stereo not given)	7
-7%	-8%	1.8%	COc1ccc(NC(=O)CN(c2cccc(F)c2)S(C)(=O)=O)cc1OC	-8
-21%	12%	-5.4%	CN(CC(=O)Nc1ccc(S(=O)(=O)N2CCCC2)cc1)Cc1c(F)cccc1Cl	5
19%	-13%	4.0%	Cc1cccc(N2CCC(NCc3c(C(=O)N4CCCCC4)nc4c(C)cccn34)CC2)c1	11
-18%	5%	0.6%	Cn1nnnc1N=N/C(=N/Nc1ccccc1)c1ccccc1	-9
-18%	·	-3.8%	O=C(O)c1ccc(SCc2ccccc2)nc1	·
-5%	-1%	?	Cc1ccc(N2CC(C(=O)Nc3nnc(SCCC4OCCO4)s3)CC2=O)cc1 (stereo not given)	·
-22%	·	?	Cc1ccc2c(c1)[C@H]1[C@H](CO2)[C@H](c2ccccc2)[C@]2(C)C(=O)N(Cc3ccc(Cl)cc3)CC(=O)N12	·

Already shown: an excerpt of the list.
Rango release inh	miR-21 FLuc	Rango complex inh	Structure	GLA inh pH 4.5
0%	2%	4.4%	Cc1nc(C(=O)Nc2ccc(Cl)cc2Cl)nn1-c1cc(OC(C)C)c(Cl)cc1Cl	-6
44%	-2%	-4.4%	CCOC(=O)C1(Cc2ccccc2)CCN(CC2CC=CCC2)CC1 (stereo not given)	-5
8%	-4%	0.2%	O=C1c2cc(Cl)ccc2OC2(CCNCC2)C12CC(c1ccccc1)=NO2 (stereo not given)	6
0%	-3%	-3.2%	NC(=O)C1(N2CCCCC2)CCN(c2nc(-c3ccccc3)cs2)CC1	-1
0%	8%	2.2%	COc1ccc(OCc2nnc(SCC(=O)N3c4ccccc4Sc4ccc(Cl)cc43)o2)cc1	-7
2%	-5%	-2.5%	CCC1CCCCN1CC(=O)c1c(C)[nH]c2ccccc12 (stereo not given)	7
-7%	-8%	1.8%	COc1ccc(NC(=O)CN(c2cccc(F)c2)S(C)(=O)=O)cc1OC	-8
-21%	12%	-5.4%	CN(CC(=O)Nc1ccc(S(=O)(=O)N2CCCC2)cc1)Cc1c(F)cccc1Cl	5
19%	-13%	4.0%	Cc1cccc(N2CCC(NCc3c(C(=O)N4CCCCC4)nc4c(C)cccn34)CC2)c1	11
-18%	5%	0.6%	Cn1nnnc1N=N/C(=N/Nc1ccccc1)c1ccccc1	-9
-18%	·	-3.8%	O=C(O)c1ccc(SCc2ccccc2)nc1	·
-5%	-1%	?	Cc1ccc(N2CC(C(=O)Nc3nnc(SCCC4OCCO4)s3)CC2=O)cc1 (stereo not given)	·
-22%	·	?	Cc1ccc2c(c1)[C@H]1[C@H](CO2)[C@H](c2ccccc2)[C@]2(C)C(=O)N(Cc3ccc(Cl)cc3)CC(=O)N12	·
